Compound activity (PubChem BioAssay)
S aureus helic: blocks Staphylococcus aureus DNA helicase; purified S. aureus helicase, fluorescence unwinding assay; about half of the hits fall short of the stated cut; inhibition, %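 (tested at about 80 µM)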; 120,000 tested, 0.05% active;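 active = both duplicates at 50% or more, or one of them with a favoured structure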;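 note: 0% = mean of negative control wells and 100% = mean of positive control wells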
MgrA DNA FP: S. aureus MgrA-DNA binding modulation | fluorescence polarization | AID 602314 | 84,000 tested, 0.13% active | inhibition, %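 (about 10 µg/mL by stock and volumes)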;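 active = above 50% in either of two replicates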;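 note: 0% = protein plus DNA without compound and 100% = DNA alone without protein; higher means less MgrA bound to DNA so lower polarization; one replicate is shown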
An asterisk follows results filed as active; · = no result given; & = joins results of further samples. These rows are one share of the data. The share of hits here may be higher or lower than overall.

Below each compound: S aureus helic	MgrA DNA FP
O=C(NCc1ccco1)c1ccccc1SCc1ccc(F)cc1
→ 4	-0.5
COc1cc(OC)c(C(=O)OCC#N)cc1OC
→ -3	·
COCCn1c(SC(C)C(N)=O)nc2ccccc21 (stereo not drawn)
→ -14	·
CC(C)CCNC(=O)C1CCN(Cc2ccccc2O)CC1
→ 17	-0.1
CCc1ccc2[nH]c(=O)c(C(c3nnnn3C3CCCC3)N(C)Cc3ccccc3)cc2c1 (stereo not drawn)
→ 2	1.4
Cc1cc(C)cc(NC(=O)Cn2cnc3c2c(=O)n(C)c(=O)n3C)c1
→ 8	·
O=C(/C=C/c1ccc(OC(F)F)cc1)Oc1ccc(-n2cnnn2)cc1
→ 10	·
CCn1cc(S(=O)(=O)CC(=O)NC2CCCCC2)c2ccccc21
→ 7	·
COc1ccccc1NC(=O)c1noc2ncn(C)c(=O)c12
→ 15	·
CCN(CC)C(=O)c1ccccc1-c1ccccc1C(=O)O
→ 8	·
Cc1ccc(C)n1-c1ccsc1C(=O)NN
→ -4	·
CCCCCCc1c(C)c2ccc(OC(C)C(=O)O)c(C)c2oc1=O (stereo not drawn)
→ 28	·
CC(C)(C)NC(=O)NCC1COC2(CCCCC2)O1 (stereo not drawn)
→ 7	·
Nc1ccc(C(=O)N2CCCC2)cc1
→ -5	0.1
COc1cccc(NC(=S)Nc2ccc3nc4n(c(=O)c3c2)CCCCC4)c1
→ 36	·
COCCNC(=O)c1cc2sc3ccccc3c2s1
→ -9	0.6
Cc1nc(-c2ccc(S(=O)(=O)NCc3ccco3)s2)cs1
→ ·	-0.8
CSC(C)C(=O)C1=C(O)c2ccccc2C1=O (stereo not drawn)
→ -17	·
O=C1C2C3C=CC(C3)C2C(=O)N1C1CCS(=O)(=O)C1 (stereo not drawn)
→ -5	·
Cc1ccc(S(=O)(=O)NCCN2CCOCC2)cc1-c1nnc2c3ccccc3c(C)nn12
→ 0	-0.3

3 structures from above, ordered by length of the SMILES, low to high:
Below each compound: S aureus helic	MgrA DNA FP
Cc1ccc(C)n1-c1ccsc1C(=O)NN
→ -4	·
CSC(C)C(=O)C1=C(O)c2ccccc2C1=O (stereo not drawn)
→ -17	·
Cc1nc(-c2ccc(S(=O)(=O)NCc3ccco3)s2)cs1
→ ·	-0.8

(cont.)
Below each compound: S aureus helic	MgrA DNA FP
CC(C)n1ncc2c(C(=O)NCC3COc4ccccc4O3)cc(C3CC3)nc21 (stereo not drawn)
→ 11	·
Cc1ccc2c(c1)c(-c1ccccc1)c(-c1ccccc1)n2CC(O)Cn1c(C)cc(C)nc1=O (stereo not drawn)
→ 9	0.8
O=C(O)C1CCN(c2nc3ccccc3n2Cc2cccc(F)c2)CC1
→ 0	·
Cc1ccc2nc(-c3ccc(NC(=O)c4ccncc4)cc3)sc2c1
→ -15	-4.9
Cn1c2c(c(=O)n(C)c1=O)CN(Cc1ccccc1)CN2
→ 6	·
O=S(=O)(NCCCO)c1ccc2c(c1)Cc1cc(S(=O)(=O)NCCCO)ccc1-2
→ 7	-0.6
CCN(CC)C(=O)c1ccc(I)cc1
→ 13	0.4
O=S(=O)(NC1CCCc2ccccc21)c1cccc2nonc12 (stereo not drawn)
→ ·	0.9
CCC1=Nc2cc(C(=O)NCCN3CCOCC3)ccc2Sc2ccccc21
→ 17	·
CCSC1=C(C#N)C(=O)NC(c2ccc(OC)cc2)S1 (stereo not drawn)
→ 15	0.2
CN1CC(C(=O)N2CCN(c3ccccc3F)CC2)c2ccccc2C1=O (stereo not drawn)
→ 28	·
COc1ccc(-c2ccc(CCC(=O)O)o2)cc1
→ 4	5.3
O=C(CC(c1ccccc1)c1cc(Br)ccc1O)NCCCN1CCOCC1 (stereo not drawn)
→ 9	-0.7
O=C1Nc2ccccc2C12CC(c1ccc(F)c(Cl)c1)=NN2 (stereo not drawn)
→ 0	-8.1
Cc1nc(-c2cnn3c(C)cc(C(F)(F)F)nc23)no1
→ ·	-3.0
CCOC(=O)C1=C(C)N(c2ccccc2)C(=O)C1CC(=O)O (stereo not drawn)
→ -1	·
OCc1ccc(OCc2cnc(Cl)s2)cc1
→ ·	1.4
CCOC(=O)N1CCN(C(=O)c2sc3cc(F)ccc3c2Cl)CC1
→ 22	·
CC(C)(C)S(=O)(=O)c1cccs1
→ 6	-0.9
N#C/C(N)=C(\C#N)N=Cc1ccc(C#N)cc1
→ ·	-0.6
CC(C)NC(=S)Nc1ccc2nc3n(c(=O)c2c1)CCCCC3
→ 16	·
CN(Cc1ccccc1)C(=O)Cn1cnc2onc(-c3ccc(Cl)cc3)c2c1=O
→ -27	·
O=C(O)c1ccc(N=Cc2cccs2)cc1
→ ·	-1.5
CC(C)n1c(O)c(C2=c3ccccc3=NC2=O)sc1=S
→ -8	·
O=C(O)Cc1csc2ccccc12
→ ·	1.4
Cc1ccc2cc3c(nc2c1)N(c1ccccc1)CC3
→ 8	0.7
O=C(O)CCCNc1nc(-c2ccccc2)cs1
→ 8	·
Cc1cc2c(=O)n(Cc3ccco3)c(SCc3nc4ccccc4[nH]3)nc2s1
→ 4	0.1
CC(=O)NS(=O)(=O)c1ccc(N=Cc2ccccc2O)cc1
→ ·	-1.1
NCCN1CCCCC1
→ -8	·

Four entries out of the list above, ordered by the number in S aureus helic, falling.
SMILES,S aureus helic
CC(C)NC(=S)Nc1ccc2nc3n(c(=O)c2c1)CCCCC3,16
Cc1cc2c(=O)n(Cc3ccco3)c(SCc3nc4ccccc4[nH]3)nc2s1,4
CC(C)n1c(O)c(C2=c3ccccc3=NC2=O)sc1=S,-8
CN(Cc1ccccc1)C(=O)Cn1cnc2onc(-c3ccc(Cl)cc3)c2c1=O,-27

Following part:
Below each compound: S aureus helic	MgrA DNA FP
CCOC(=O)c1cnc2c(ccc3ccccc32)c1NCc1ccco1
→ 10	2.0
O=C(Cc1ccccc1)Nc1nonc1NC(=O)c1ccccc1
→ 6	3.8
COC(=O)CN1CCN(S(=O)(=O)c2ccc(Br)cc2)CC1
→ 9	·
CCN(CC)C(=O)c1cc(C)no1
→ -3	·
O=c1[nH]c(NCCCN2CCOCC2)nnc1-c1ccccc1
→ 4	·
COc1cccc2cc(S(=O)(=O)c3ccc(Cl)cc3)c(=O)oc12
→ 17	-6.3
CC12OC(=N)C(C#N)(C1c1ccccc1)C(C#N)(C#N)C(c1ccccc1)O2 (stereo not drawn)
→ 12	1.9
O=C(CSc1nnc(Cc2csc(Nc3cccc(Cl)c3)n2)o1)c1ccc2c(c1)OCCO2
→ 5	5.8
Cc1cc(C)c2c(=O)[nH]sc2n1
→ -3	·
COc1c(C(C)(C)C)cc(N=Cc2cc(Br)ccc2O)c(C)c1N=Cc1cc(Br)ccc1O
→ ·	0.7
Clc1ccc(-c2noc3ncnc(NCc4ccccc4)c23)cc1
→ 16	·
CC(=O)N1CCc2cc(S(=O)(=O)CCC(=O)Nc3ccc(C)cn3)ccc21
→ 4	·
Cc1onc(-c2ccccc2)c1CNC(=O)Nc1cccc(Cl)c1
→ -1	·
CCOC(=O)C(C)(C)Sc1nc(-c2ccc(F)cc2)nc2c1c(=O)n(C)c(=O)n2C
→ 17	0.8
CCOC(=O)c1nnn(-c2nn3nnnc3c3ccccc23)c1C
→ -9	1.5
CCOc1ccc(Nc2nc3c(C)cccc3cc2C#N)cc1
→ -2	1.6
COc1ccc(CSC(N)=Nc2ccccc2Cl)cc1
→ ·	-2.2
CNC(=O)c1cccc(NS(=O)(=O)c2ccc(C)cc2)c1
→ 16	·
CCn1c(=O)n(CC)c2cc(S(=O)(=O)Nc3ccccc3C)c(C)cc21
→ 3	-3.2
CCN(CC)S(=O)(=O)c1ccc(/C=C/C(=O)N2CC(C)OC(C)C2)cc1 (stereo not drawn)
→ -7	·
CN(Cc1nc2cc(-c3ccc(Cl)cc3)sc2c(=O)[nH]1)Cc1ccco1
→ -5	·
CCc1ccc(C2=Nn3c(nnc3-c3cccc(S(=O)(=O)N(CC)CC)c3)SC2)cc1
→ 17	·
COc1cccc(C(=O)N(C)C2(c3ccccc3Cl)CCCCC2=O)c1OC (stereo not drawn)
→ -6	-1.1
Nc1c(C(=O)N2CCCC2)sc2nc(-c3ccccc3)ccc12
→ 10	·
CC1CC(=O)Nc2ccccc2N1C(=O)CCC(=O)O (stereo not drawn)
→ 33	·
O=C(O)c1ccc(CN2C(=O)CSC2=S)cc1
→ 19&1	·
CCc1ccc(/C=c2\s/c(=C(/C#N)C(=O)C(C)(C)C)n(Cc3ccco3)c2=O)cc1
→ 3	·
COc1ccc(CC(=O)Nc2c3c(nn2-c2ccc(C)cc2)CSC3)cc1
→ 8	3.5
OCc1cc(Cl)c2c(c1)OCO2
→ 1	·
COC(=O)c1ccc(O)c(Sc2cc(C(=O)OC)ccc2O)c1
→ 3	-0.1
C=CCNCc1ccccc1F
→ 4	0.6
O=C(O)CCC(=O)Nc1ccc(Oc2c(Cl)cccc2Cl)nc1
→ ·	-2.6
CCC(=O)N(c1nnc(SCc2cc(=O)n3c(C)csc3n2)s1)C1CC1
→ -7	·
Cc1ccc(C)c(S(=O)(=O)N(CC(N)=O)C(C)c2ccccc2)c1 (stereo not drawn)
→ 10	·
Cn1c(SCC(=O)O)nnc1-c1ccc2ncccc2c1
→ ·	1.6
O=C(CSC1=NC2(CCCC2)N=C1c1ccccc1)Nc1ccccc1
→ 6	1.4
S=c1[nH]c(-c2ccccc2)cs1
→ -7	·
COC(=O)c1ccc(NC(=O)NC(=O)C(F)(F)F)cc1
→ 7	-1.5
Cc1cc(C(=O)O)c(S(C)(=O)=O)s1
→ 4	-1.2
CCC(=O)NCCc1nc2ccccc2n1C(C)C
→ 4	·
Cn1c(=O)c2c(nc(Br)n2CC(=O)c2ccccc2)n(C)c1=O
→ 9	-2.1
CCOC(=O)C(Cc1ccc(F)cc1)(NC(C)=O)C(=O)OCC
→ ·	-0.1
S=c1[nH]cnc2scc(-c3ccc(Cl)cc3)c12
→ 17	15
Cc1cc(=O)[nH]c(C23CC4CC(CC(C4)C2)C3)n1
→ ·	1.8
CCOC(=O)c1cn(CC)c2c(ccc3ccccc32)c1=O
→ 15	-0.8
COC(=O)c1ccccc1NC(=O)Cn1c(=O)c2ccccc2n2nncc12
→ 3	0.1
CCOC(=O)c1cnc2c(c(C)nn2C)c1Sc1ccc(C(F)(F)F)cn1
→ ·	-2.5
COC(=O)c1cc2occc2n1Cc1ccc(C)cc1
→ 10	·
O=C(Nc1cccc(Cl)c1)c1cc(-c2cccc(Cl)c2)on1
→ 5	·
CC1(C)Cc2nc(N3CCCC3)c(C#N)cc2CO1
→ -3	-1.4

Of the compounds above, three contain a CF3 group:
Below each compound: S aureus helic	MgrA DNA FP
Cc1nc(-c2cnn3c(C)cc(C(F)(F)F)nc23)no1
→ ·	-3.0
COC(=O)c1ccc(NC(=O)NC(=O)C(F)(F)F)cc1
→ 7	-1.5
CCOC(=O)c1cnc2c(c(C)nn2C)c1Sc1ccc(C(F)(F)F)cn1
→ ·	-2.5

The listing continues.
Below each compound: S aureus helic	MgrA DNA FP
O=C(Nc1nn[nH]n1)c1cc(F)c(F)cc1Cl
→ 7	-5.5
O=C(NCCN1CCOCC1)c1cc2nc(-c3ccc4c(c3)OCO4)cc(C(F)(F)F)n2n1
→ ·	-1.4
CN(CC(=O)NCc1ccccc1)c1nnc(N2CCCC2=O)s1
→ -12	1.3
CCNC(=S)Nc1ccc2cn[nH]c2c1
→ 16	·
c1ccc(COc2ccc(C3SCCS3)cc2)cc1
→ ·	-2.0
O=C(Nc1nc2ccccc2s1)NC1CCCCC1
→ -10	1.5
CN(CCC#N)c1ncnc2c1oc1ccccc12
→ -4	·
Clc1ccc(-c2nc(N3CCOCC3)nc3ccccc23)cc1
→ -1	·
c1ccc(Nc2c(-c3ccco3)nc3ccccn23)cc1
→ 7	1.2
Clc1ccc(C2=NC(c3ccc(Cl)c(Cl)c3)N=C(c3ccc(Cl)cc3)S2)cc1
→ ·	9.2
CN1CCC(N(C)C(=O)NC2CC(=O)N(c3cccc(F)c3)C2)CC1 (stereo not drawn)
→ 9	·
O=Cc1c(O)n(-c2ccc(Cl)cc2)c(=O)[nH]c1=O
→ 0	-4.0
COc1ccc(C(=O)N2CCN(C)CC2)cc1OC
→ -36	·
O=C(CSC1CCCC1)NCC1CCCCC1
→ 12	-2.8
CC(C)(C)S(=O)(=O)c1ccc(N)nc1
→ 12	·
O=C(/C=C/c1ccco1)Nc1ccc(S(=O)(=O)N2CCc3ccccc32)cc1
→ -7	·
CCOc1ccccc1NC(=S)NC1CC2CCC1C2 (stereo not drawn)
→ ·	4.4
NS(=O)(=O)c1ccc(CCNC(=S)NCc2ccco2)cc1
→ -9	0.2
S=c1[nH]nc(-c2ccccc2)n1-c1ccccc1
→ 27	-0.4
COc1ccc(-n2ccnc(SCC(=O)Nc3ccccc3)c2=O)cc1
→ 1	·
N#C/C(=C(/O)COc1ccccc1)c1nc2ccccc2[nH]1
→ -2	0.1
Cc1ccc2nc(NC(=O)c3ccc(=O)[nH]c3)sc2c1
→ -6	·
O=S(=O)(c1cccs1)N1CCCCC1
→ 22	·
Clc1ccc(SCc2ccc(-c3nc4ccccc4s3)cc2)cc1
→ ·	-0.3
CCOC(=O)N1CCN(C(=O)CN2C(=O)/C(=C\c3cccc(Cl)c3)Sc3ccccc32)CC1
→ 27	·
CC1(C)NC(=S)c2ccccc2N1
→ -30	·
NC1=CC(=O)CC(c2ccc(Cl)cc2)C1 (stereo not drawn)
→ ·	0.8
Cc1cc(C)c(N2C(=O)c3nccnc3C2=O)c(C)c1
→ 4	·
